Screening results from PubChem BioAssay.
StopGo RLuc – Primary qHTS Assay for Foot and Mouth Disease Virus Antivirals against NCGC Sytravon and CBC Compound Libraries: Renilla Luciferase Signal | HEK cells with a luciferase reporter of 2A StopGo recoding | Potency, µM (highest dose often 57.5 µM), without a hit: at the top dose signal change, negative = less light | 120,000 compounds, 0.32% hits; active means well fitted falling curve with a large enough effect; inconclusive means small, poorly fitted or top-dose-only effect; inactive means no such curve, though single readings can be large or run the other way; note: nearly all actives have a fitted effect of over 55% in size; overnight with compound
StopGo FLuc – Primary qHTS Assay for Foot and Mouth Disease Virus Antivirals against NCGC Sytravon and CBC Compound Libraries: Firefly Luciferase Signal. HEK cells with a luciferase reporter of 2A StopGo recoding. Potency, µM (titrated, usually from 57.5 µM), without a hit: at the top dose signal change, negative = less light. 120,000 compounds, 0.23% hits. AID 1745856, 2022; active = well fitted falling curve with a large enough effect; inconclusive = small, poorly fitted or top-dose-only effect; inactive = no such curve, though single readings can be large or run the other way; note: nearly all actives have a fitted effect of over 60% in size; overnight with compound
* hit, by the source's call; ? = inconclusive; & = joins results of further samples; [ ] = remark or other dose. % is set by controls: 0 for no effect and ±100 for the full control effect; potency is the fitted concentration of half-maximal effect. Only part of the results is shown, so the mix of outcomes need not match the whole.

The opening six records as a preview:
1	CC1CCC(NC(=O)c2ccc3c(c2)CCCC3)CC1 (stereo not given)
2	CC(NC(=O)c1ccc(SC(F)F)cc1)c1ccccn1 (stereo not given)
3	COc1ccc(N(C(=O)c2cccs2)S(=O)(=O)c2ccc3c(c2)oc(=O)n3C)cc1
4	COc1ccc(C(=O)/C(C#N)=C\c2ccc(Cl)cc2)cc1
5	COc1ccc(-c2nc3ccccc3s2)cc1NC(=O)COc1ccccc1C
6	COc1ccc(-c2csc(Nc3ccccn3)n2)cc1OC
assay / compound	1	2	3	4	5	6
StopGo RLuc	39.7%[activator]	-3.1%[1.06 µM]	99.8%[activator]	10.2%	-12.9%	?
StopGo FLuc	287.1%[activator]	34.6%[activator]	46.5%[activator]	0.8%	34.5%	50.4%[activator]

This part in full, repeating the preview:
1	CC1CCC(NC(=O)c2ccc3c(c2)CCCC3)CC1 (stereo not given)
2	CC(NC(=O)c1ccc(SC(F)F)cc1)c1ccccn1 (stereo not given)
3	COc1ccc(N(C(=O)c2cccs2)S(=O)(=O)c2ccc3c(c2)oc(=O)n3C)cc1
4	COc1ccc(C(=O)/C(C#N)=C\c2ccc(Cl)cc2)cc1
5	COc1ccc(-c2nc3ccccc3s2)cc1NC(=O)COc1ccccc1C
assay / compound	1	2	3	4	5
StopGo RLuc	39.7%[activator]	-3.1%[1.06 µM]	99.8%[activator]	10.2%	-12.9%
StopGo FLuc	287.1%[activator]	34.6%[activator]	46.5%[activator]	0.8%	34.5%

6	COc1ccc(-c2csc(Nc3ccccn3)n2)cc1OC
7	O=C(Cn1c(=O)ccc2cc(S(=O)(=O)N3CCCC3)ccc21)NCc1ccco1
8	CCOC(=O)c1ccc(N2C(=O)c3[nH]nc(-c4ccccc4)c3C2c2cccs2)cc1 (stereo not given)
9	COc1ccccc1N1CCN(CCCCNC(=O)c2ccc(-c3ccc(C(C)=O)cc3)cc2)CC1
10	CCC(=O)N1CCc2cc(S(=O)(=O)NCc3ccc(C)cc3)ccc21
assay / compound	6	7	8	9	10
StopGo RLuc	?	1.6%	-10.6%	-1.1%	93.8%[activator]
StopGo FLuc	50.4%[activator]	1.8%	?	3.1%	18.7%

11	CCCc1ccc(OC(=O)c2ccc3c(c2)-c2ccccc2C3=O)cc1
12	O=C(COc1ccc(F)cc1)OCc1cc(=O)n2nc(C3CCCCC3)sc2n1
13	NNC(=O)Nc1ccccc1
14	CC(C1CC1)N(Cc1ccccc1)S(=O)(=O)c1ccc(F)cc1F (stereo not given)
15	CCCCNC(=O)C(CC)Sc1nnc(-c2ccc(OC)c(OC)c2)c(-c2ccc(OC)c(OC)c2)n1 (stereo not given)
assay / compound	11	12	13	14	15
StopGo RLuc	13.8%	6.8%	12.8%	9.6%	11.8%
StopGo FLuc	22.1%	-9.8%	177.9%[activator]	2.6%	8.0%

16	Cc1ccc(CSc2nc3ccncc3n2Cc2nc(-c3ccc(Cl)cc3)oc2C)cc1
17	O=C(CSc1nc(-c2ccccc2)cc(=O)[nH]1)Nc1oncc1-c1ccc(F)cc1
18	CCCCCCCCS(=O)(=O)CCSCCO
19	CC(SCc1coc(-c2ccc(Cl)cc2)n1)C(=O)NC(C)(C)C (stereo not given)
20	COC(=O)c1c(C)[nH]c(C(=O)C(C)Nc2ccc(OC)cc2OC)c1C (stereo not given)
assay / compound	16	17	18	19	20
StopGo RLuc	-3.1%	0.0%	-9.3%	?	5.5%
StopGo FLuc	22.7%	30.5%[activator]	20.9%	?	-19.6%

21	Cc1ccc2c(CN3c4ccccc4CC3C)cc(=O)oc2c1 (stereo not given)
22	Cc1ccc(C(=O)CS(=O)(=O)c2ccc(C)cc2)cc1
23	CCOc1ccc(-c2nc(CSCC(=O)N3CCN(c4ccc(F)cc4)CC3)c(C)o2)cc1
24	CCN(CC)C(=O)c1sc(NC(=O)C2c3ccccc3Oc3ccccc32)c(C(=O)OC(C)C)c1C
25	O=C(CSc1nc(=O)n(Cc2ccco2)c2c1CCC2)NCc1ccco1
assay / compound	21	22	23	24	25
StopGo RLuc	20.8%	52.7%[activator]	-4.7%	6.6%	0.0%
StopGo FLuc	-8.1%	126.6%[activator]	-0.6%	10.4%	7.4%

26	O=C(NCCc1ccccc1)C(Cc1ccccc1)NS(=O)(=O)c1ccc(Br)s1 (stereo not given)
27	CC(NC(=O)c1ccc[n+]([O-])c1)c1cccc(C(F)(F)F)c1 (stereo not given)
28	Cc1ccccc1OCC(=O)Nc1ccc2oc(=O)ccc2c1
29	OC12CC3CC(C1)CC(NCc1ccccc1)(C3)C2
30	O=C(CN1C(=O)C2(SCC(=O)N2c2ccccc2)c2ccccc21)NCCc1ccccc1 (stereo not given)
assay / compound	26	27	28	29	30
StopGo RLuc	77.4%[activator]	-5.9%[1.06 µM]	1.8%	122.1%[activator]	3.7%
StopGo FLuc	-22.3%	0.0%	29.3%	88.2%[activator]	-15.7%

31	COc1ccc(N(Cc2cccs2)C(=O)COc2ccc(C(C)C)cc2)cc1
32	Cc1cccc(N(Cc2cc(=O)[nH]c3ccccc23)C(=O)C(C)C)c1
33	CC(C)(CNC(=O)c1cc(-c2ccc3c(c2)CCCC3)on1)N1CCOCC1
34	CC1CCCN(CC2CCCCN2)C1 (stereo not given)
35	CCN(CC)S(=O)(=O)c1ccc(/C=C/C(=O)OCC(=O)C(C)(C)C)cc1
assay / compound	31	32	33	34	35
StopGo RLuc	16.3%	19.0%	0.3%	7.3%	2.6%
StopGo FLuc	-17.8%	13.6%	6.8%	8.9%	-0.3%

36	COc1ccc(-n2nnc(-c3nc(-c4cccs4)no3)c2N)cc1OC
37	CC(=O)Nc1ccc(S(=O)(=O)NCC(=O)O)cc1
38	CC(C)c1ccc(S(=O)(=O)NCCc2cccc3cccnc23)cc1
39	CC(C)c1cc(C(=O)NCc2ccc(F)cc2)no1
40	Cc1cccc(-n2c(SCc3nc(-c4ccccc4C)no3)nnc2-c2ccccc2)c1
assay / compound	36	37	38	39	40
StopGo RLuc	-5.7%	-5.9%	199.9%[activator]	33.4%[activator]	-13.5%
StopGo FLuc	-7.8%	-8.5%	-4.8%	67.2%[activator]	-10.9%

41	CCCNc1nc2ccccc2nc1C(=O)Nc1ccc(OCC)cc1
42	COc1ccc(C(=O)Nc2oc3ccc(Cl)cc3c(=O)c2-c2cc(OC)c(OC)c(OC)c2)cc1
43	COc1cc(C=O)c(Br)cc1OCCc1ccccc1
44	Cc1cc(F)ccc1NC(=O)Cn1c(=O)ccc2cc(S(=O)(=O)N3CCC(C)CC3)ccc21
45	O=C(CCc1ncc(-c2c(F)cccc2F)o1)NCCCN1CCOCC1
assay / compound	41	42	43	44	45
StopGo RLuc	0.8%	-3.9%	13.2%	70.6%[activator]	-2.1%
StopGo FLuc	8.8%	-9.7%	0.0%	-1.8%	9.3%

46	CCCCc1nn2c(=O)cc(COC(=O)c3ccccc3NC(=O)C(C)(C)C)nc2s1
47	O=C(NCc1ccc2c(c1)OCO2)c1ccc(N2CCCN(Cc3ccccc3)C2=O)cc1
48	CCOCCc1nn2c(=O)cc(COC(=O)CNC(=O)c3ccc(F)cc3)nc2s1
49	CC(NC(=O)CCc1ncc(-c2ccccc2)o1)c1ccc(S(C)(=O)=O)cc1 (stereo not given)
50	Cc1ccccc1NC(=O)CN1C(=O)CCn2nc(-c3cccn3C)cc21
assay / compound	46	47	48	49	50
StopGo RLuc	-6.5%	40.0%[activator]	-4.0%	-0.3%	-11.6%
StopGo FLuc	5.3%	-5.2%	-14.3%	35.9%[activator]	-1.2%

51	CC(=O)c1ccccc1NC(=O)COc1ccccc1C(N)=O
52	Cc1c(C)c2cc3c(c(C)c2oc1=O)OCN(CCc1ccccc1)C3
53	Cc1ccc(-c2ccc(CCC(=O)O)n2-c2cccc(C)c2C)cc1
54	O=C(NC1CC2CCC1C2)c1ccc(I)cc1 (stereo not given)
55	Brc1ccc(-c2ccc(CNc3ncn[nH]3)o2)cc1
assay / compound	51	52	53	54	55
StopGo RLuc	-0.6%	21.5%	-20.6%	42.5%[activator]	-14.1%
StopGo FLuc	0.0%	55.6%[activator]	0.6%	142.3%[activator]	61.7%[activator]

56	Cc1ccc2nc(Nc3nc(C)cc(=O)[nH]3)nc(C)c2c1
57	CCc1ccccc1Nc1nn2c(=O)c3ccc(C(=O)NCc4ccccc4Cl)cc3nc2s1
58	Cc1cnc2c(S(=O)(=O)NCC3CC3)cccc2c1
59	COc1ccc(S(=O)(=O)c2cn(C)c3cc(N4CCCC4)c(F)cc3c2=O)cc1
60	Cc1ccc(Cn2c(SCCO)nc3c2c(=O)[nH]c(=O)n3C)cc1
assay / compound	56	57	58	59	60
StopGo RLuc	-2.4%	-0.1%	119.9%[activator]	0.0%	21.0%
StopGo FLuc	55.6%[activator]	26.2%	4.3%	-5.3%	0.0%

61	CC(C)NC(=O)Nc1ccc(CNC(=O)C2(C#N)CCCC2)cc1
62	CCOC(=O)c1[nH]c(C)c(/C(C)=N/O)c1C
63	CCc1cc(=O)oc2cc(C)cc(OCC(=O)NCc3ccccn3)c12
64	CCc1ccccc1NC(=O)CSc1ncc(S(=O)(=O)c2ccccc2)c(N)n1
65	Cc1ccc(C(=O)CSc2nnc(CCCOc3ccc(Cl)cc3Cl)n2C)cc1
assay / compound	61	62	63	64	65
StopGo RLuc	0.0%	-8.9%&-6.2%	-1.7%	21.9%	-13.3%
StopGo FLuc	0.0%	25.2%&1.1%	-7.2%	-2.7%	-3.3%

66	COc1cccc(-n2c(SCc3ccccc3C)nc3c([nH]c4ccccc43)c2=O)c1
67	C=CCc1cccc2cc(C(=O)NCCc3c(C)[nH]c4c(C)cccc34)c(=O)oc12
68	O=C(O)CCn1ccc2cc(S(=O)(=O)N3CCCCCC3)ccc21
69	Cc1cc2oc(=O)cc(COC(=O)c3cnccn3)c2cc1C(C)C
70	CCCC(=O)Nc1ccc(-c2nc3ccc(C)cc3o2)cc1
assay / compound	66	67	68	69	70
StopGo RLuc	-17.0%	-6.0%	170.9%[activator]	-9.9%	16.5%
StopGo FLuc	-27.8%	-7.5%	16.2%	2.0%	15.2%

71	COc1cccc(F)c1-c1nc(C)c(C(=O)Nc2cccnc2)s1
72	Nc1nc(Nc2ccccc2)sc1C(=O)c1ccc(Cl)cc1
73	CC(=O)N1c2ccc(S(=O)(=O)NCC3CCC(C(=O)Nc4cccc(F)c4)CC3)cc2CC1C (stereo not given)
74	O=C(COc1ccccc1)NCCc1csc(-c2ccc(F)cc2)n1
75	CC1CCc2nc3ccc4ccccc4c3c(-c3ccc(O)cc3)c2C1 (stereo not given)
assay / compound	71	72	73	74	75
StopGo RLuc	43.9%[activator]	19.6%	?	-7.7%	-0.4%
StopGo FLuc	50.2%[activator]	105.8%[activator]	?	-1.8%	109.8%[activator]

76	CN(C)S(=O)(=O)c1cccc(C(=O)Nc2ccc(N3CCCCC3)c3ccncc23)c1
77	Cc1ccc(CNC(=O)c2cc(-c3ccc(C)c(C)c3)nc3ccccc23)cc1
78	Cc1ccc(N2CC(NC(=O)C(=O)c3c[nH]c4ccccc34)CC2=O)cc1 (stereo not given)
79	O=C(OCC(=O)N1CCCCCC1)c1ccc(S(=O)(=O)NCc2ccco2)cc1
80	COc1ccc(-c2nn3c(-c4ccc(OC)cc4)nnc3c3ccccc23)cc1
assay / compound	76	77	78	79	80
StopGo RLuc	0.5%	-2.5%	-9.3%	-3.2%	-2.0%
StopGo FLuc	-9.1%	-10.6%	-27.1%	-6.6%	11.9%

81	c1ccc(N2CCN(Cc3nnc(-c4ccc5c(c4)OCO5)o3)CC2)cc1
82	CCc1cccc(C)c1NC(=O)C1CCN(S(=O)(=O)c2cccc3nonc23)CC1
83	O=C(/C=C/c1cc2ccccc2nc1N1CCOCC1)c1ccccc1F
84	Cc1cc2ccccc2n1CC(=O)N(C)Cc1ccc(C(N)=O)cc1
85	Cn1c(=O)nc2n(-c3ccc(Br)cc3)c3cccc(Cl)c3cc-2c1=O
assay / compound	81	82	83	84	85
StopGo RLuc	-11.6%	-6.1%	19.2%	-12.6%	-5.3%
StopGo FLuc	-7.9%	-9.0%	71.6%[activator]	-5.2%	-11.8%

86	CCn1c(=NC(=O)c2ccc(S(=O)(=O)N3CCCCC3)cc2)sc2cccc(OC)c21
87	CCOC(=O)CSc1nc(-c2ccc(C)cc2C)cc(-c2ccccc2)c1C#N
88	Cn1c(C(=O)Nc2ccc(OC(F)(F)F)cc2)cc2c(=O)n3ccccc3nc21
89	CCNC(=O)NCc1ccc(C(=O)OC)cc1
90	Cc1ccc2c(c1C)NC(=O)C2(O)C(F)(F)F (stereo not given)
91	Cc1ccccc1C(=O)Cn1c(=O)n(CCc2ccccc2)c(=O)c2sccc21
92	Cc1c(C(=O)N2CCC(C(=O)Nc3ccc4c(c3)OCO4)CC2)oc2ccccc12
93	COc1ccccc1Nc1cc(C(=O)NCCCN(C)C2CCCCC2)c2ccccc2n1
assay / compound	86	87	88	89	90	91	92	93
StopGo RLuc	-11.2%	-2.9%	-10.3%	-1.0%	-13.2%	2.9%	15.1%	?
StopGo FLuc	-11.6%	-8.3%	3.1%	-0.4%	-7.4%	121.7%[activator]	0.0%	28.2µM*
